PKD1 inh: inhibitors of human PKD1 kinase. inhibition, %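 (about 10 µM by stock and volumes)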. hit rate 0.056% among 200,000. PKD1 kinase fluorescence polarization assay;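 active = inhibition of 50% or more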;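 also: controls were vehicle for no effect and a reference inhibitor for full effect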
Target sequence (Q15139 whole entry, looked up): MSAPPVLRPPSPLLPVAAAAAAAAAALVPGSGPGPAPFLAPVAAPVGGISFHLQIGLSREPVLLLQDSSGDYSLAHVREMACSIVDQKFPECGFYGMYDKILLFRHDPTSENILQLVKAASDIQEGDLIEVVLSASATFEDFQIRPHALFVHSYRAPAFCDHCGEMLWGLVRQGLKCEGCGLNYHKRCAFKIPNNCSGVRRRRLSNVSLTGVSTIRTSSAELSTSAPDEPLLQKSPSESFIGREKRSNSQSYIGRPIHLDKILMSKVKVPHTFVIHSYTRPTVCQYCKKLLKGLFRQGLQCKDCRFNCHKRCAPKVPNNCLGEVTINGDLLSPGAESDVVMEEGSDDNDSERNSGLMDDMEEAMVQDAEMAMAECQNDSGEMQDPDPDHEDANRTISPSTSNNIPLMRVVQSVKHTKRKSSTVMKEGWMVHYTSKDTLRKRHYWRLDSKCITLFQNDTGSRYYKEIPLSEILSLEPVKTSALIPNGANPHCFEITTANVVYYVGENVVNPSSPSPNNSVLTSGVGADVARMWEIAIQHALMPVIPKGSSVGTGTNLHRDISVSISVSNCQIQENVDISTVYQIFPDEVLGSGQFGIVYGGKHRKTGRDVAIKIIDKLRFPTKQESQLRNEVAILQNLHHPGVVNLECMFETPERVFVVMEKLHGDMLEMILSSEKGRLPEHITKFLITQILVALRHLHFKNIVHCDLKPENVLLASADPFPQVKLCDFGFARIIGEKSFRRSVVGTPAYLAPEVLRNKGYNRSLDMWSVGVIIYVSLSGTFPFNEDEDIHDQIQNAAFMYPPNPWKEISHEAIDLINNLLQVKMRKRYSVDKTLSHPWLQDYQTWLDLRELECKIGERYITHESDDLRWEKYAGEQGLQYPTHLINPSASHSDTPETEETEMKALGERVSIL
GALR2 ag: activates the human galanin receptor 2; GALR2-expressing cells, agonist activation read-out; activation, %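 (tested at 5 µM)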; hit rate 0.48% among 140,000;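 active = above mean plus 3 SD of all compounds, about 5% in these data, not always enough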;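 also: 0% = vehicle buffer wells and 100% = reference agonist at full effect; tested in CHO reporter cells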
RGS16-Gao: regulators of human RGS16-Galphao interaction; hit rate 0.38% among 220,000; bead-based flow cytometry RGS16-Galphao binding, fluorescence; actives lie on both sides; binding response (% of control), % at 10 µM; O15492+P09471;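 active = below 25% or above 175%, edge rows of some plates excepted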;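 also: Galphao activated by GDP with aluminum fluoride before binding; 100% = wells without compound and 0% = beads without RGS; some results beyond the cut were filed as inactive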
Insulin prom inh: TRM-6 insulin promoter activity inhibition; TRM-6 cells (human fetal islet line), insulin promoter-eGFP reporter, imaging; reporter expression induced with tamoxifen; hit rate 0.9% among 130,000; AID 1273; inhibition, % at 2 µM;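 active = inhibition above the mean plus 3 SD, with well images judged a real hit on visual review, cut at about 60% in these data, passing the limit was not always enough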
HSV augment: HSV replication enhancement; HSV replication augmentation in cells, fold increase; maximum fold increase; hit rate 0.005% among 220,000; AID 1956;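 active = peak rise of 1.5-fold or more in the series; tested in PC3 cells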;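 also: first round at 10 µM; read as green reporter fluorescence; hits show the peak of a series up to 25 µM; 1 = signal of infected wells without compound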
Insulin prom inh cell count: further read-out of Insulin prom inh, marked with its call; normalized cell count, %; measured here: cell count, toxicity; reference of the scale not given here;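 cells exposed to compound for 48 h; stained nuclei by imaging scaled within each plate; lower means fewer cells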
HSV augment primary fold: second read-out of HSV augment, no call of its own (marks repeat the call); fold increase; compound at 10 µM; measured here: primary screen fold increase 10 uM; tested in PC3 cells;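 GFP signal in the first replicate; 1 = infected wells without compound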
* hit, by the source's call; i = inactive; · = not tested or not shown.

The line under a structure holds: RGS16-Gao, HSV augment, HSV augment primary fold, GALR2 ag, Insulin prom inh cell count, Insulin prom inh, PKD1 inh
1. CCOC(=O)c1ccccc1NC(=O)Cc1ccccc1OC
 : 108, i, 0.99, -1.8, 127, 71, -7
2. CC(=O)N1C(=O)/C(=C2\SC(=S)N(NC(=O)c3ccc(O)cc3)C2=O)c2ccccc21
 : 103, i, 0.95, ·, 105, 56, -5
3. Cc1ccc(/C=N/n2c(C3CCCCC3)n[nH]c2=S)s1
 : 101, i, 0.87, 0.7, 163, 28, -9
4. C=CCN(C(=O)c1ccccc1)c1ccc(OC)cc1
 : 101, i, 0.92, -1.2, 85, 14, -3
5. O=C(c1ccc(F)cc1)c1c[nH]c(C(=O)NCc2ccco2)c1
 : 110, i, 0.7, -2.3, 112, 0, -10
6. O=S(=O)(c1ccc(-c2cn3ccccc3n2)cc1)N1CCOCC1
 : 97, i, 1, -1.0, 116, -15, -5
7. CC(C)Oc1ccc(Cc2cnc(=S)[nH]c2N)cc1
 : 93, i, 1, ·, ·, ·, -3
8. CC(=O)c1cccc(NC(=O)Nc2cccnc2)c1
 : 109, i, 1.1, -1.4, 154, 7, 11
9. O=[N+]([O-])c1ccc(Cl)c(/C=N/n2c(-c3cccnc3)n[nH]c2=S)c1
 : 101, i, 0.72, -2.1, 78, 20, 2
10. Cc1ccc(CCNC(=O)C2CCCN(S(=O)(=O)c3cccc4nsnc34)C2)cc1 (centres undefined)
 : 104, i, 1, 1.3, ·, ·, 0
11. O=C1c2ccccc2C(=O)N1CCCn1nnc(-c2ccc(N3CCOCC3)cc2)n1
 : 103, i, 0.92, -2.0, 162, -32, 5
12. O=C(c1ccccc1Sc1ccccc1[N+](=O)[O-])N1CCCCC1
 : 103, i, 1, ·, ·, ·, 3
13. CCOC(=O)c1ccc(NC(=O)NCc2ccccc2OC)cc1
 : 97, i, 0.86, ·, ·, ·, -2
14. CCOc1cc(C(=O)N2CCN(c3ccccc3)CC2)cc(OCC)c1OCC
 : 73, i, 0.91, -1.2, 45, 6, 2
15. CCn1c(=O)cc(SCC(=O)Nc2ccc(C)cn2)c2ccccc21
 : 103, i, 0.99, ·, ·, ·, 6
16. CCOc1ccc(-c2nc(CSc3nnc(C)s3)cs2)cc1OC
 : 98, i, 0.93, -3.9, 90, 9, -6
17. Nc1nnc(-c2ccccc2[N+](=O)[O-])o1
 : 100, i, 0.88, ·, ·, ·, -5
18. Nc1c(S(=O)(=O)c2cccs2)c2nc3ccccc3nc2n1CC1CCCO1 (centres undefined)
 : 105, i, 1.2, -0.7, 67, 27, -1
19. COc1ccc2c(c1)C(=O)c1ccccc1CO2
 : 107, ·, ·, -2.2, 65, -14, 1
20. Cc1ccc(OCc2nnc(NC(=O)c3ccco3)s2)cc1
 : 101, i, 0.97, -3.5, 134, 22, -7

A different layout for part of the listing above.
cpd | compound | RGS16-Gao | HSV augment | HSV augment primary fold | GALR2 ag | Insulin prom inh cell count | Insulin prom inh | PKD1 inh
18 | Nc1c(S(=O)(=O)c2cccs2)c2nc3ccccc3nc2n1CC1CCCO1 (centres undefined) | 105 | i | 1.2 | -0.7 | 67 | 27 | -1
9 | O=[N+]([O-])c1ccc(Cl)c(/C=N/n2c(-c3cccnc3)n[nH]c2=S)c1 | 101 | i | 0.72 | -2.1 | 78 | 20 | 2

Other records follow:
The line under a structure holds: RGS16-Gao, HSV augment, HSV augment primary fold, GALR2 ag, Insulin prom inh cell count, Insulin prom inh, PKD1 inh
21. N=c1c2c3c(sc2ncn1CCN1CCOCC1)CCCCC3
 : 108, i, 0.91, 1.4, 25, 64, 2
22. C=CCn1c(CCC)nc2ccccc21
 : 97, i, 1.2, ·, 102, 58, -4
23. COC(=O)c1c(NC(=O)C2COc3ccccc3O2)sc2c1CCN(C(C)=O)C2 (centres undefined)
 : 114, i, 0.9, -0.1, 115, -12, -4
24. CC(C)OC(=O)CSc1nnc(Cc2ccccc2)n1C
 : 101, i, 0.98, -2.5, ·, ·, -3
25. COc1ccc(OCCn2c(C)c(/C=N/n3cnnc3)c3ccccc32)cc1
 : 114, i, 0.78, 2.1, 85, 14, -1
26. CCOc1ncccc1C(=O)OCC(=O)Nc1c(C)cc(C)cc1C
 : 115, i, 0.78, 0.0, 123, 62, -4
27. CC1CCCC(NC(=O)CN(C)S(=O)(=O)c2cccc3cccnc23)C1C (centres undefined)
 : 104, i, 0.94, -1.9, ·, ·, -4
28. CCCCn1c(NCc2ccc(N(C)C)cc2)nc2ccccc21
 : 118, i, 0.91, ·, ·, ·, ·
29. COC(=O)COc1cc(C)cc2oc(=O)c(CC(=O)OC)c(C)c12
 : 94, i, 0.89, -1.1, 117, 29, -5
30. CC(C)(C)n1nnnc1C(c1ccc(F)cc1)N1CCN(Cc2ccc3c(c2)OCO3)CC1 (centres undefined)
 : 99, i, 0.98, 0.4, 154, 42, -6
31. COc1ccc(NC(=O)C(NC(=O)Cc2cccs2)c2ccc(C)cc2)cc1 (centres undefined)
 : 50, i, 1, -1.0, ·, ·, -2
32. CCc1cc2c(CN3CCN(C)CC3)cc(=O)oc2cc1O
 : 112, i, 0.92, 2.0, 81, 0, -5
33. CCN1C(=O)c2cccc3c(S(=O)(=O)NCCc4c[nH]c5ccccc45)ccc1c23
 : 101, i, 0.75, 0.7, 85, -24, -8
34. COc1cc(/C=N/N2C(=O)C3C4c5ccccc5C(c5ccccc54)C3C2=O)ccc1O (centres undefined)
 : 109, i, 1, 0.1, ·, ·, -1
35. COc1cc(OC)cc(C(=O)Nc2ncc3c(n2)CC(C)(C)CC3=O)c1
 : 117, i, 0.98, -2.4, ·, ·, -6
36. O=C(O)c1csc(-c2ccccc2)n1
 : 98, i, 0.86, ·, ·, ·, ·
37. C#CCSc1nc(Cc2ccc(Cl)cc2)nc2ccccc12
 : 109, i, 1.2, -3.2, 146, -121, -8
38. CCn1cc(C(=O)Nc2nnc(C)s2)c(=O)c2cc(F)c(N3CCN(C(=O)c4ccco4)CC3)cc21
 : ·, ·, ·, 0.0, 45, -375, -6
39. Cc1cc(C)c(NC(=O)c2ccccc2N(C)S(C)(=O)=O)c(C)c1
 : 99, i, 1.3, -1.0, 55, 11, 0
40. COc1cc(S(=O)(=O)Nc2ccc(C)cc2)ccc1N=Cc1c(C)[nH]n(-c2ccc(C)cc2)c1=O
 : 94, i, 0.95, -0.1, ·, ·, 5

3 structures from above, ordered by formula weight, low to high.
The line under a structure holds: RGS16-Gao, HSV augment, HSV augment primary fold, GALR2 ag, Insulin prom inh cell count, Insulin prom inh, PKD1 inh
17. Nc1nnc(-c2ccccc2[N+](=O)[O-])o1
 : 100, i, 0.88, ·, ·, ·, -5
8. CC(=O)c1cccc(NC(=O)Nc2cccnc2)c1
 : 109, i, 1.1, -1.4, 154, 7, 11
18. Nc1c(S(=O)(=O)c2cccs2)c2nc3ccccc3nc2n1CC1CCCO1 (centres undefined)
 : 105, i, 1.2, -0.7, 67, 27, -1

Following part:
The line under a structure holds: RGS16-Gao, HSV augment, HSV augment primary fold, GALR2 ag, Insulin prom inh cell count, Insulin prom inh, PKD1 inh
41. CC(=O)N1CCN(Cc2nc3cc(NC(=O)c4ccccc4C)ccc3n2C)CC1
 : 101, i, 1, 0.0, 127, -11, -4
42. CCOC(=O)C1CCCN(c2c(Nc3ccc(C)c(C)c3)c(=O)c2=O)C1 (centres undefined)
 : 75, i, 0.88, -0.1, 174, -71, -7
43. O=c1[nH]cn[nH]1
 : 102, i, 0.97, ·, ·, ·, 18
44. Cc1cccc(C(=O)Nc2ccccc2C(=O)OCc2c(C)noc2C)c1
 : 101, i, 0.85, -0.4, 93, -76, 5
45. Cc1nnsc1-c1c(C(=O)O)c(C)nn1-c1ccc(OC(F)(F)F)cc1
 : 96, i, 1.2, ·, ·, ·, ·
46. N[C@@H](Cc1ccccc1)c1nnc(SCc2ccccc2F)o1
 : 117, i, 0.97, -2.1, 90, -56, -10
47. Nn1c(SCC(=O)N2CCc3ccccc3C2)nnc1-c1cccs1
 : 103, i, 0.98, -3.1, 112, 32, -5
48. COc1cc(O)c(C(CC(=O)N2CCCC(C)C2)c2ccc3c(c2)OCO3)c(OC)c1 (centres undefined)
 : 103, i, 0.78, ·, ·, ·, ·
49. CCOC(=O)c1c(NC(=O)CC2Sc3ccc(C(F)(F)F)cc3NC2=O)sc(C)c1C (centres undefined)
 : 104, i, 1, -0.1, ·, ·, -10
50. FCCCOc1ccc(/C=N/OCc2ccc(Cl)cc2Cl)cc1
 : 98, i, 0.96, -0.6, 71, 17, -5
51. CCOC(=O)CN1C(=O)S/C(=C/c2cc(C)n(C)c2C)C1=O
 : ·, i, 0.93, 0.3, 114, -2, -9
52. Cc1nn(-c2ccccn2)c2c1C(=O)C(Br)CC2 (centres undefined)
 : 88, i, 1.1, ·, 108, -13, -7
53. CC(=O)Nc1ccc(S(=O)(=O)N2CCCCC2C(=O)O)cc1 (centres undefined)
 : 99, i, 0.94, ·, ·, ·, 2
54. CCOc1ccc(NC(=O)CN2CCC(n3cnc4cc(F)ccc43)CC2)cc1
 : 98, i, 1.1, ·, ·, ·, 1
55. CCCCC(=O)N/C(N)=N/c1nc2ccccc2o1
 : 95, i, 1, ·, ·, ·, ·
56. CCOC(=O)Cc1csc(NC(=O)C2CCCN(S(=O)(=O)c3cnc[nH]3)C2)n1 (centres undefined)
 : 87, i, 0.96, -2.4, ·, ·, -2
57. CCOC(=O)CSc1nc(-c2ccc3c(c2)OCO3)ccc1C#N
 : 101, i, 0.87, -1.9, ·, ·, 3
58. COc1ccc(CNCCSc2nnnn2C)cc1OC
 : 102, i, 0.97, 0.0, 134, 11, -3
59. COc1ccccc1CC(=O)NCC1CCCO1 (centres undefined)
 : 103, i, 0.94, ·, ·, ·, ·
60. Cc1ccc(S(=O)(=O)N2CCN=C2SCc2ccc(Cl)c(Cl)c2)cc1
 : 105, i, 0.96, -0.5, ·, ·, -11

Next section
The line under a structure holds: RGS16-Gao, HSV augment, HSV augment primary fold, GALR2 ag, Insulin prom inh cell count, Insulin prom inh, PKD1 inh
61. Cc1cc(N2CCN(C)CC2)nc2ccc(NC(=O)c3ccccc3F)cc12
 : 105, i, 0.95, ·, 97, -7, -1
62. O=C(O)c1cnn2cc(-c3[nH]ncc3[N+](=O)[O-])cnc12
 : 138, i, 0.94, -0.4, ·, ·, 2
63. Fc1ccc(C2c3cccn3CCN2C(=S)Nc2cccc(F)c2)cc1 (centres undefined)
 : 98, i, 0.86, ·, 119, -4, -5
64. CC(=O)OC1CC(n2ccc(NC(=O)c3ccccc3)nc2=O)OC1CO (centres undefined)
 : 108, i, 1, -1.2, 147, -24, -6
65. CCOc1cc(C=O)ccc1OCCSc1ccc(Cl)cc1
 : 119, i, 0.73, -1.5, 166, -10, 4
66. Cc1cc(C)nc(-n2nc(C)c3c(C(F)F)cc(C)nc32)n1
 : 105, i, 0.86, -1.0, ·, ·, -6
67. O=C(Cc1c[nH]c2ccccc12)NCc1ccc2c(c1)OCO2
 : 117, i, 0.94, -1.4, ·, ·, -13
68. O=C(c1cc2ccccc2c(=O)o1)N1CCCC1
 : 31, i, 1.1, -2.0, 103, -5, -9
69. Cc1cc(NC(=O)c2ocnc2C)no1
 : 97, i, 0.99, -0.6, 129, 36, 0
70. CO/N=C/NC(=O)c1cn(-c2ccc(F)cc2)c(=O)c2ccccc12
 : 137, i, 0.9, -2.1, ·, ·, -3
71. Cc1ccc(NC(=O)CCNS(=O)(=O)c2cc(Br)cnc2N)cc1Cl
 : 101, i, 0.85, -2.0, 115, -44, -3
72. Cc1ccc(S(=O)(=O)N2CCC(C(=O)NCCCN3CCCCCC3)CC2)cc1
 : 103, i, 1.1, -0.8, ·, ·, -12
73. Cc1ccccc1OCC(O)Cn1c(N2CCN(c3ccccc3)CC2)nc2c1c(=O)[nH]c(=O)n2C (centres undefined)
 : 97, i, 0.9, -1.6, 90, 38, 0
74. CN(C)c1ccc(CNCCC2(O)CCOC(C)(C)C2)cc1 (centres undefined)
 : 106, i, 1, -3.7, 110, 26, 3
75. O=C(Nc1cccnc1)c1noc2c1CCCC2
 : 99, i, 0.87, -0.2, ·, ·, -3
76. Cc1ccc2nc(/C(C#N)=C\c3ccc(N4CCCCC4)c([N+](=O)[O-])c3)[nH]c2c1
 : 90, i, 0.76, -0.8, 87, -8, 2
77. O=C(O)CCCC(=O)Nc1ccc(N2CCCC2)cc1
 : 102, i, 0.97, -1.5, ·, ·, 0
78. O=c1[nH]n(-c2ccccn2)c(=O)c2ccccc12
 : 109, i, 1, -0.8, 133, -11, -13
79. COc1ccc(OC)c(NS(=O)(=O)c2ccc3c(c2)n(C)c(=O)n3C)c1
 : 97, i, 1, -0.8, 183, -11, -1
80. CC1CCc2[nH]c3ccc(C(=O)NCCCOC(C)C)cc3c2C1 (centres undefined)
 : 96, i, 0.89, ·, ·, ·, -8

Bioassay records as filed in PubChem BioAssay.
